High-throughput results as filed in PubChem BioAssay.
NPYLR7 agonist: mosquito NPYLR7 agonism; HEK293T NPYLR7/Galpha15, GCaMP6s calcium fluorescence; activation, % at 10 µM; 270,000 compounds, 0.15% hits; in the data active = activation above about 40%;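 note: 0% = vehicle and 100% = reference agonist at the receptor; some compounds past the cut are filed as inactive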
NPYLR7 agonist max-min: recorded beside NPYLR7 agonist, whose call it bears; activation, %; measured here: Max-Min RFU normalised activation; some inactives read as strong as hits;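 span of the calcium signal over five minutes; 0% = vehicle and 100% = native peptide agonist; compound fluorescence can raise it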
An asterisk follows results filed as active; & = joins results of further samples. Only part of the results is shown. The share of hits here may be higher or lower than overall.

Fields – NPYLR7 agonist | NPYLR7 agonist max-min
CC(=O)Nc1cccc(C(=O)Nc2ccc(S(=O)(=O)NC(C)C3CC4CCC3C4)cc2)c1 (stereo not drawn)
  -1 | 15
CCOC1(OCC)C(c2ccccc2OC)C(C#N)(C#N)C1(OCC)OCC (stereo not drawn)
  4 | 11
O=C(c1ccc(Cl)c(Cl)c1)N1CCC(c2ccccc2)CC1
  -2 | -13
CCOC(=O)c1cc(C(C)c2ccccc2)sc1NC(=O)c1ccco1 (stereo not drawn)
  0 | -4
COc1ccc(C)cc1-n1ccc(C(=O)Nc2ccc(N3CCCCC3)cn2)n1
  0 | 464
O=C(c1cccc(Cn2cccn2)c1)N1CC(c2ccncc2)C1
  3 | 7
CCC1(CC)CN(C(=O)c2ccc(CC3CCCNC3)cc2)CCO1 (stereo not drawn)
  0 | -3
CCc1nc2sc3c(NCCN(C)C)ncnc3c2c2c1CCCC2
  3 | -1
COc1ccc(CC2CCN(C(=O)c3ccco3)CC2)cc1
  0 | 9
O=C(Nc1cccc(Cc2ccccc2)c1)Nc1ccc2nc([C@@H]3O[C@H](CO)[C@@H](O)[C@H](O)[C@H]3O)[nH]c2c1
  16 | 21
COCCCNC(=O)c1nn(C)c2c1CN(C(=O)Cc1c(C)[nH]c3c(F)cccc13)CC2
  20 | 11
COc1ccc(C(=O)NC(Cc2ccccc2)C(=O)Nc2nnc(-c3cccc(Br)c3)s2)cc1 (stereo not drawn)
  -5 | -5
CN(C)c1nc2c(c(N(C)C)n1)CCN(C(=O)[C@@H](N)c1ccccc1)C2
  8 | 5
COc1ccc(N(C2C=CS(=O)(=O)C2)S(=O)(=O)c2ccc(F)cc2)cc1 (stereo not drawn)
  5 | 5
C[C@H]1C(O)[C@@]23CCC4C5(C=[N+](CCO)C[C@]4(C)CCC5)C2C[C@@H]1C3 (stereo partly drawn)
  2 | 0
O=C(CC1CCC(=O)N1)NCc1ccc2[nH]c3c(c2c1)CCCCCC3 (stereo not drawn)
  16 | 15
CC(C)c1ccccc1NC(=O)CN1c2ccccc2CC1C (stereo not drawn)
  -7 | -9
CC(=O)[C@H]1CCC2C3C=CC4=CC(=O)CC[C@@]4(C)C3CC[C@@]21C (stereo partly drawn)
  -4 | -3
CNC(=O)c1c(NC(=O)Cc2ccc(C)cc2C)sc(C)c1C
  8 | 3
Cc1ccc(Cc2nc(CSc3cc(Cl)ccc3Cl)cs2)cc1
  2 | -1
O=c1c2cnn(CCO)c2ncn1Cc1ccccc1
  19 | 11
Cc1ccc(Oc2ccc(-c3nc(N)nc(N)n3)cc2)cc1
  6 | 6
COC(=O)Cn1c(=N)n(Cc2ccccc2)c2ccccc21
  0 | -3
CC(=O)Nc1ccc(NC(=O)C(C2CCCC2)N2CCN(C(=O)CC(C)(C)C)CC2)cc1 (stereo not drawn)
  -1 | -4
C=CCNC(=O)N(CC1CCCO1)C1CCCC1 (stereo not drawn)
  -2 | -8
CC1Sc2ccc(C#N)cc2N(Cc2ccc(S(C)(=O)=O)cc2)C1=O (stereo not drawn)
  3 | -2
N#Cc1c2n(c(=O)n(CC(O)c3ccccc3)c1=O)CCCCC2 (stereo not drawn)
  -7 | -6
CCOC(=O)Cn1c(C2CC(=O)N(CC)C2)nc2ccccc21 (stereo not drawn)
  3 | 12
CC(C)C(NS(=O)(=O)c1ccc(S(=O)(=O)N2CCCCC2)cc1)c1nccn1C (stereo not drawn)
  9 | 2
CCCCC1C=CCN1C(=O)c1c(O)cccc1O (stereo not drawn)
  4 | 3

5 of the compounds above, as comma-separated lines.
Compound,NPYLR7 agonist,NPYLR7 agonist max-min
O=C(c1cccc(Cn2cccn2)c1)N1CC(c2ccncc2)C1,3,7
CC(=O)Nc1ccc(NC(=O)C(C2CCCC2)N2CCN(C(=O)CC(C)(C)C)CC2)cc1 (stereo not drawn),-1,-4
CCOC(=O)c1cc(C(C)c2ccccc2)sc1NC(=O)c1ccco1 (stereo not drawn),0,-4
CC1Sc2ccc(C#N)cc2N(Cc2ccc(S(C)(=O)=O)cc2)C1=O (stereo not drawn),3,-2
CN(C)c1nc2c(c(N(C)C)n1)CCN(C(=O)[C@@H](N)c1ccccc1)C2,8,5

Next part
Fields – NPYLR7 agonist | NPYLR7 agonist max-min
Cc1cc(=O)n(CC(=O)N2CCCC(O)(CN(C)C)C2)nc1C (stereo not drawn)
  3 | -1
COc1ccc2c(Oc3ccc(NC(=O)c4c(C)n(CC(C)(C)O)n(-c5ccccc5)c4=O)nc3)ccnc2c1
  4 | -2
NC(=O)c1nccnc1C(=O)NC1CC1c1c(F)cccc1Cl (stereo not drawn)
  6 | 3
CC1Cc2ccccc2N1Cc1cc(=O)c(OCC(=O)Nc2cccc(C(F)(F)F)c2)co1 (stereo not drawn)
  -1 | 26
O=C(CCC1CCCN(Cc2cccc3cccnc23)C1)NC1CC1 (stereo not drawn)
  2 | -2
Cc1ccc(CNC(=O)CSc2nc(=O)[nH]c3c2CCC3)cc1
  -1 | -5
FC(F)(F)c1cccc(Nc2nc(-c3ccco3)nc3ccccc23)c1
  28 | 30
S=c1[nH]nc(-c2c[nH]c3ccccc23)o1
  4 | 3
CSCCCNC(=O)c1c(C)noc1-c1ccco1
  -5 | -1
Cc1c(S(=O)(=O)NC2CCCCC2)c(=O)n(C)c(=O)n1C
  -1 | -1
O=C1CCC([N+](=O)[O-])C(c2ccc(-c3ccccc3)cc2)N1 (stereo not drawn)
  -9 | -17
O=C(Nc1ccncc1)c1nnn(-c2ccc(F)cc2)c1C(F)(F)F
  -7 | 238
Oc1oc(-c2ccccc2)nc1C=Nc1ccccc1
  -3 | -9
O=S(=O)(NCCN1CCCC1Cc1ccccc1)c1ccccc1 (stereo not drawn)
  0 | 11
COc1cc(C)ccc1S(=O)(=O)NC(=O)C1(C)CCN1C(=O)c1cccc2ccccc12 (stereo not drawn)
  5 | 0
COc1ccc(NC(=O)CCN2C(=O)NC3(CCCC3)C2=O)cc1S(=O)(=O)N(C)C
  15 | 9
O=C1C2OCC(O2)C2C1[C@H]2C(=O)c1ccc(Cl)cc1 (stereo partly drawn)
  17 | 15
Cc1ccc(CNC(=O)c2ccc(Nc3cc(Nc4ccc5ncsc5c4)nc(N)n3)cc2)o1
  2 | 0
CN(Cc1nc(-c2cnccn2)no1)CC1(N2CCOCC2)CCCCC1
  0 | -3
CCN1CCN(S(=O)(=O)c2c[nH]c(=O)[nH]c2=O)CC1
  -10 | -15
COC(=O)c1ccc(CN2CCCC(C(=O)Nc3ccc(-c4ccn[nH]4)cc3)C2)cc1 (stereo not drawn)
  6&8 | 6&5
CN(Cc1ccc2c(c1)OCCO2)C(=O)c1cc(C2CC2)nn1C(C)(C)C
  -9 | -6
Cn1cc(I)c(C(=O)NC(=S)N2CCSCC2)n1
  1 | -2
CC(=O)Oc1ccccc1Cn1c(C)c(C(=O)NCc2ccc3c(c2)OCO3)sc1=O
  10 | 6
Cc1cc(C)c2nc(N(CCN(C)C)C(=O)c3ccco3)sc2c1
  -1 | -5
CCN(Cc1ccc(F)cc1)C(=O)CC(=O)Nc1ccc(C)cc1
  -7 | -15
Nc1ccc(C(F)(F)F)cc1[N+](=O)[O-]
  -1 | -1
Cc1cccc2c1C(=O)NC1(CCN(C(=O)c3ccc(F)cc3)CC1)N2
  7 | 12
COc1cccc(SC(C)C(=O)NC2CCCC2)c1 (stereo not drawn)
  9 | 6
Cc1cccc(C(=O)N2C(C(=O)NCc3ccc4c(c3)OCO4)COC23CCN(C(=O)CC(C)C)CC3)c1 (stereo not drawn)
  2 | 17

Next part:
Fields – NPYLR7 agonist | NPYLR7 agonist max-min
O=C(c1ccco1)N1CCC(NS(=O)(=O)c2c(Cl)cccc2Cl)CC1
  3 | 2
C=CCC(O)(CC=C)c1ccc(CN(Cc2ccc(C)s2)CC2CCCO2)o1 (stereo not drawn)
  3 | 5
CC(C)c1cc(Oc2cccc(Cl)c2)nc(SCc2ccc([N+](=O)[O-])cc2)n1
  3 | 15
O=c1[nH]c(CCl)nc2c1cnn2Cc1ccccc1
  12 | 11
Cc1cccc(COn2cccc(C(=O)Nc3ccc(F)cc3)c2=O)c1
  15 | 18
O=C(CSc1ncn[nH]1)Nc1ccc(C(F)(F)F)cc1
  5 | 1
N=C1C(c2ccccc2)C(=O)C2CCc3ccccc3N12 (stereo not drawn)
  6 | 3
O=C(CCc1cc(=O)[nH]o1)N1C[C@@H]2[C@H](C1)[C@H]1CC[C@@H]2O1
  15 | 3
CCSc1nnc(NC(=O)c2cc(-c3cccc(C)c3)nc3ccccc23)s1
  -4 | -10
COc1ccc(C2c3ccsc3CCN2C(=O)CN(C(=O)c2ccc([N+](=O)[O-])cc2Cl)C(C)(C)C)cc1 (stereo not drawn)
  10 | 17
CC(Oc1cccc(Cl)c1)C(=O)N1CCOC(Cc2ccccc2)C1 (stereo not drawn)
  -5 | -10
CC(C)(C(=O)NCC1(O)CCSC1)c1cccc(F)c1 (stereo not drawn)
  3 | 1
O=C1N=C(N2CCN(C3=NC(=O)C(=Cc4cccc(O)c4)S3)CC2)SC1=Cc1cccc(O)c1
  -7 | -9
COC(=O)c1ccc(OC(=O)C=Cc2cccc([N+](=O)[O-])c2)cc1
  1 | -1
O=C(CNS(=O)(=O)c1ccc(Cl)cc1)NCC12CC3CC(CC(C3)C1)C2
  0 | -3
COc1cc(OC)cc(C(=O)Nc2nnc(CC(C)C)s2)c1
  3 | -2
Cc1cn2c3c(=O)n(CC(C)C)c(=O)n(C)c3nc2n1CCO
  4 | 3
CCn1c(C2CCCNC2)nn(CCn2cccc2)c1=O (stereo not drawn)
  -9 | -10
N#CC(NC(=O)c1ccc(N2CCOC2=O)cc1)c1ccccc1F (stereo not drawn)
  6 | 2
CC(NC(=O)CNC(C)(CO)C1CCCCC1)c1ccccc1Cl (stereo not drawn)
  8 | 4
COC(=O)c1ccc(-c2noc(CN3CCN(c4ccccc4F)CC3)n2)cc1
  5 | 0
CCCn1c(=O)c(C(=O)N2CCOCC2)nn(-c2ccccc2)c1=O
  2 | 10
OC(CC(O)c1ccccc1)CN1CCOCC1 (stereo not drawn)
  3 | 8
O=C1NC(c2ccccc2)=C(c2nc3ccccc3s2)C(c2ccc3c(c2)OCO3)N1 (stereo not drawn)
  13 | 14
CCC(C)N(Cc1cccc(OS(=O)(=O)c2cccc(C(F)(F)F)c2)c1)C(=O)Nc1ccc(F)c(Cl)c1 (stereo not drawn)
  4 | 2
c1ccc(-c2nc(C3NCCc4[nH]cnc43)cs2)cc1 (stereo not drawn)
  -5 | -7
Cc1cccc(-c2nc(Cc3ccccc3)no2)c1
  8 | 5
COC(=O)c1sc(N2CCOC(c3ccccc3)C2)nc1Cl (stereo not drawn)
  5 | 5
O=C(c1cnc(Nc2ccccc2)nc1)N1CCC2(CCCO2)CC1
  25 | 6
CC(C(=O)N1CCCC1)N1CC(c2cccnc2)C1 (stereo not drawn)
  25 | 11

Quoted at random: three compounds from above.
Fields – NPYLR7 agonist | NPYLR7 agonist max-min
O=C1N=C(N2CCN(C3=NC(=O)C(=Cc4cccc(O)c4)S3)CC2)SC1=Cc1cccc(O)c1
  -7 | -9
C=CCC(O)(CC=C)c1ccc(CN(Cc2ccc(C)s2)CC2CCCO2)o1 (stereo not drawn)
  3 | 5
CC(Oc1cccc(Cl)c1)C(=O)N1CCOC(Cc2ccccc2)C1 (stereo not drawn)
  -5 | -10

(cont.)
Fields – NPYLR7 agonist | NPYLR7 agonist max-min
O=C(Cn1cnnn1)NCCCc1ccc(Br)cc1F
  -7 | -8
CCN1CCN(c2c(CN(CCOC)S(=O)(=O)c3ccc(F)cc3)c(C)nn2-c2cccc(F)c2)CC1
  2 | 7
CCn1c(SCCC2CCCCN2C)nnc1-c1ccccc1OC (stereo not drawn)
  0 | -1
CCCOc1ccc(C(=O)NC(=S)NC23CC4CC(CC(C4)C2)C3)cc1
  -3 | -5
Cc1[nH]n(-c2nc(-c3cccc([N+](=O)[O-])c3)cs2)c(=O)c1N=Nc1cccc(C(F)(F)F)c1
  -13 | -17
O=C1C=C(N2CCOCC2)C(=O)N1c1ccc(Cl)cc1
  -2 | -3
Cc1cc(C)c2sc(=NS(=O)(=O)c3ccc(Cl)s3)n(C)c2c1
  15 | 9
Cc1ccsc1C=NNc1ncnc2sc(C)c(C)c12
  8 | 12
COC(=O)C(C)Sc1nc2c(c(=O)n1-c1ccccc1)SCC2 (stereo not drawn)
  -1 | -3
CC(C)n1nnnc1SCC(=O)Nc1ccc(F)cc1
  14 | 5
NC1(C(=O)O)CCCCC1
  6 | -15
CCOc1ccccc1NC(=O)c1oc2ccccc2c1NC(=O)Cc1cccs1
  -3 | 4
CCc1nnc(CS(=O)(=O)c2ccc3ccccc3c2)o1
  3 | 1
CCNC(=O)N(Cc1ccccc1)CC1CC(c2ccc(Cl)o2)=NO1 (stereo not drawn)
  21 | 26
Cn1c(-c2ccc(Cl)cc2)csc1=Nc1cccc(S(=O)(=O)N2CCOCC2)c1
  -2 | -2
CCN(CC)S(=O)(=O)c1cccc(N=Nc2c(C)nn(-c3ccccc3)c2N)c1
  -10 | -19
CCOC(=O)c1sc(I)c(C#N)c1C
  4 | 3
CCC[C@@H]1C[C@@H](C(=O)N[C@H]([C@H]2O[C@H](SC)[C@H](O)[C@@H](O)[C@H]2O)[C@H](C)O)N(C)C1
  -7 | -9
Cc1ccc(F)c(NC(=O)CCN[C@@H](CO)c2ccccc2)c1
  14 | -2

Two neighbouring entries from above, for reference:
Fields – NPYLR7 agonist | NPYLR7 agonist max-min
O=C(Cn1cnnn1)NCCCc1ccc(Br)cc1F
  -7 | -8
CCN1CCN(c2c(CN(CCOC)S(=O)(=O)c3ccc(F)cc3)c(C)nn2-c2cccc(F)c2)CC1
  2 | 7
